Cruzain inh Det: blocks cruzain activity in presence of Triton detergent | P25779 | Potency, µM, for inactives: max response, negative = inhibition, actives largely listed as inhibitors | AID 1478 | purified cruzain, Z-FR-AMC fluorescence, 0.01% Triton | hit rate 0.43% among 200,000; active means well fitted curve in the direction sought with a large enough effect; inconclusive means small, poorly fitted or top-dose-only effect, or another doubt; inactive means no such curve, though single readings can be large; an effect the other way counts as inactive or inconclusive;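 further: plate controls were neutral wells for no effect and buffer without enzyme for full effect; nearly all actives have a fitted effect of over 40% in size; top concentration of the series not given in the record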
Target sequence (P25779 123-467 limits assumed): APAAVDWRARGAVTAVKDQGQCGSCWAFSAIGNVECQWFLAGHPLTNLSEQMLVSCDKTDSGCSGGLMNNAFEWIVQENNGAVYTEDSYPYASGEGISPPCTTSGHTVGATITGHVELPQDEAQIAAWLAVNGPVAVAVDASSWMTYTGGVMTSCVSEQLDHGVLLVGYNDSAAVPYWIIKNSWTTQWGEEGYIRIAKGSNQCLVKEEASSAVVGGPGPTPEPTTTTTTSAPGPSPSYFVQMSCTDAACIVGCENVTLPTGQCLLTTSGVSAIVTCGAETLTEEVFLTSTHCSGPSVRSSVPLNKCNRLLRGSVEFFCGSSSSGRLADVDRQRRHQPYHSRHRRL
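Purified cruzain (1.5 nM final) was preincubated with compounds for 15 min at room temperature in 100 mM sodium acetate pH 5.5, 5 mM DTT, 0.01% Triton X-100. Reaction started with 2 uM Z-FR-AMC; AMC fluorescence change over 60 s gave activity.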
Cruzain noTriton: cruzain (T. cruzi) inhibition without detergent; hit rate 2.3% among 200,000; Potency, µM, without a hit: max response, negative = inhibition, usual class: inhibitors; AID 1476; purified cruzain, Z-FR-AMC fluorescence, no detergent; active means well fitted curve in the direction sought with a large enough effect; inconclusive means small, poorly fitted or top-dose-only effect, or another doubt; inactive means no such curve, though single readings can be large; an effect the other way counts as inactive or inconclusive;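 further: plate controls were enzyme without inhibitor for no effect and buffer without enzyme for full effect; nearly all actives have a fitted effect of over 40% in size; top concentration of the series not given in the record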
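Detergent-free condition (0.00005% Triton X-100) in acetate buffer pH 5.5 with DTT. 1.5 nM enzyme and compound were pre-mixed 15 min, then 2 uM Z-FR-AMC substrate added; reaction progress from fluorescence change between first and third reads (60 s).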
LASV entry inh: blocks Lassa virus binding to or entry into cells; Potency, µM (top dose mostly 37.9 µM), for inactives: top-dose activity change, negative = inhibition, most hits filed as inhibitors; Lassa virus pseudotype entry inhibition, cell reporter; control for the full effect not named in the record; hit rate 1.2% among 300,000; active means well fitted inhibition curve with a large enough effect; inconclusive means small, poorly fitted or top-dose-only effect, or effect the other way; inactive means flat fitted curve, though single readings scatter; tested in HEK293 cells; further: on the % scale 0 is the no-effect control and ±100 the full control effect; nearly all actives have a fitted effect of over 50% in size; luciferase read-out
RE007 growth inh: less growth of the S. pombe RE007 Vpr strain; Potency, µM (titrated, usually from 92.2 µM), for inactives: at the top dose activity change, negative = less growth; hit rate 0.21% among 360,000; S. pombe RE007 Vpr strain, BacTiter-Glo ATP luminescence, 24 h; control for the full effect not named in the record; AID 651644; active = well fitted falling curve with a large enough effect; inconclusive = small, poorly fitted or top-dose-only effect; inactive = no such curve, though single readings can be large or run the other way;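 further: on the % scale 0 is the no-effect control and ±100 the full control effect; nearly all actives have a fitted effect of over 50% in size; the assay follows cell death caused by Vpr and the record does not say whether a fall means rescue or toxicity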
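Fission yeast RE007 carrying one integrated HIV-1 vpr copy, seeded at OD 0.01 in PMG+AL medium with 23 nL pinned compound. Grown 24 h at 30 degrees; viability read by BacTiter-Glo luminescence after 5 min.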
SARS PLpro yeast: inhibitors of SARS-CoV papain-like protease in yeast. S. cerevisiae expressing SARS-CoV PLpro, growth rescue; control for the full effect not named in the record. Potency, µM (titrated, usually from 32.9 µM), for the others: at the highest dose activity, positive = growth rescue. hit rate 0.19% among 330,000. AID 485353; further: 0% is about no effect; nearly all actives have a fitted effect of over 55% in size; growth read by luminescence after 48 h
NS1 function inh: influenza NS1 inhibition | AID 2326 | Potency, µM (titrated, usually from 46.1 µM), inactives show at the top dose activity, positive = more growth | S. cerevisiae slowed by influenza A NS1, growth recovery by OD600 | hit rate 0.4% among 270,000; further: actives are rising curves; nearly all actives have a fitted effect of over 50% in size
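S. cerevisiae expressing influenza A NS1, grown in glucose, washed, then diluted 1:100 into pH 6.0 -URA galactose medium with 23 nl compound. Growth recovery read as OD600; NS1-free strain serves as control.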
Marburg entry inh: Marburg virus entry inhibition; Marburg virus pseudotyped entry inhibition, cell reporter; control for the full effect not named in the record; about a third of the inactives were read at about 46 µM; Potency, µM (doses to about 37.8 µM), without a hit: at the top dose activity change, negative = inhibition, hits mostly inhibitors; hit rate 1.8% among 300,000; AID 540276; active = well fitted inhibition curve with a large enough effect; inconclusive = small, poorly fitted or top-dose-only effect, or effect the other way; inactive = flat fitted curve, though single readings scatter; tested in HEK293 cells; about a fifth of its hits are not listed in these tables; further: on the % scale 0 is the no-effect control and ±100 the full control effect; luciferase read-out
StopGo reporter: FMDV 2A StopGo reporter, luciferase signal; AID 1159524; human cells with a luciferase reporter of 2A StopGo recoding; control for the full effect not named in the record; hit rate 1.2% among 410,000; Potency, µM (titrated, usually from 57.9 µM), for the others: top-dose signal change, negative = less light; active = well fitted falling curve with a large enough effect; inconclusive = small, poorly fitted or top-dose-only effect; inactive = no such curve, though single readings can be large or run the other way; tested in HEK293T cells; further: on the % scale 0 is the no-effect control and ±100 the full control effect; nearly all actives have a fitted effect of over 45% in size; luciferase light after 4 h
* marks the source's active call; other numbers are inactive results; ? = inconclusive; nt = no result given; & = joins results of further samples; [ ] = another dose, or the depositor's remark. Unless noted, the call rests on the fitted dose curve; in most records, active means well fitted rising curve with a large enough effect; inconclusive means small, poorly fitted or top-dose-only effect; inactive means no such curve, though single readings can be large or run the other way. Potency means the concentration at half of the fitted maximal effect.

molecule	Cruzain inh Det	Cruzain noTriton	LASV entry inh	RE007 growth inh	SARS PLpro yeast	NS1 function inh	Marburg entry inh	StopGo reporter
CC(NS(=O)(=O)c1ccc(NC(=O)N2CCCCC2)cc1)c1ccccc1 (stereo unspecified)	nt	nt	3.2%	-0.8%	-0.5%	12.2%	-4.0%	-22.1%
CCc1ccc(NC(=O)CC(NCc2cccnc2)C(=O)O)cc1 (stereo unspecified)	0.9%	-13.5%	-27.7%[46.1 µM]	nt	nt	nt	1.6%[46.1 µM]	6.7%
CC1CCN(S(=O)(=O)c2ccc3c(c2)c(=O)c(C(=O)NC2CCCC2)cn3C)CC1	0.2%	?	-0.3%	-3.0%	-2.1%	1.9%	-1.1%	-3.0%
CC(C)(C)c1cc2ncnc(N3CCCCC3)c2s1	nt	nt	?	-0.8%	-1.5%	-54.6%	?	0.0%
COC(=O)CN1C(=S)N(Cc2ccccc2)C(=O)C1CC(=O)Nc1ccc(Br)cc1 (stereo unspecified)	-3.8%	?	?	21.8%	-29.7%	11.2µM*	-23.2%	-23.0%
Cc1ccc(S(=O)(=O)Nc2nccs2)cc1[N+](=O)[O-]	nt	nt	-1.8%	1.7%	0.4%	3.4%	-1.6%[46.1 µM]	14.2%
O=C(Nc1sc2c(c1C(=O)NCc1ccco1)CCCC2)c1cc(=O)c2ccccc2o1	-1.3%	-6.0%	23.2%[46.1 µM]	nt	nt	nt	23.8%[46.1 µM]	-24.9%
CC(NC(=O)CCCCCCN1C(=O)c2ccccc2C1=O)c1ccc2c(c1)CCCC2 (stereo unspecified)	-6.1%	15.5%	-4.8%	11.3%	-46.9%	4.1%	-5.6%	0.0%
CSc1ccc(NC(=O)Nc2cccn(Cc3ccccc3F)c2=O)cc1	nt	nt	nt	-1.6%	0.2%	-0.1%	nt	-14.3%
O=c1[nH]c(C2CCN(S(=O)(=O)c3ccc(C(F)(F)F)cc3)CC2)nc2c1nnn2Cc1ccccc1	nt	nt	nt	-4.7%	-3.6%	?	?	-29.6%

Next part.
molecule	Cruzain inh Det	Cruzain noTriton	LASV entry inh	RE007 growth inh	SARS PLpro yeast	NS1 function inh	Marburg entry inh	StopGo reporter
O=c1[nH]c(=O)n(CCc2ccc(F)cc2)c(O)c1C=NCCCn1ccnc1	-1.0%	-12.6%	4.0%	-1.9%	2.7%	2.5%	-16.2%	?
CCCc1nc(N2CCCC2)c(C#N)c2c1CCCC2	-10.0%	-8.1%	7.7%	-24.3%	-3.9%	-1.9%	-2.9%&-2.9%&-2.9%	1.0%
Cn1c(N)c(C(=O)CSc2n[nH]c(N)n2)c(=O)n(C)c1=O	nt	nt	-1.8%	-4.2%	-2.1%	nt	8.1%	-1.5%
CCOC(=O)C1CCCN(C(=O)c2c(-c3ccccc3Cl)noc2C)C1 (stereo unspecified)	2.8%	7.8%	15.8%	13.6%	-1.8%	1.2%	11.7%[46.1 µM]	-0.4%
Cc1noc(C)c1CSc1nnc2cc(C)c3ccccc3n12	-2.5%	0.2%	-3.6%	-0.7%	-3.4%	2.4%	0.5%	-18.7%
Cc1ccc(NC(=O)C(C)OC(=O)c2ccc(NC(=O)CC#N)cc2)cc1S(=O)(=O)N1CCOCC1 (stereo unspecified)	nt	nt	3.8%	-11.3%	4.9%	nt	-16.8%	8.9%
CC(C)OC(=O)Nc1ccc(Oc2c(F)c(F)c(F)c(F)c2F)cc1	4.5%	?	-15.0%	-1.0%	?	-5.9%	-21.0%	10.2%
C[C@]12CC[C@H]3[C@@H](CCC4=CC(=O)CC[C@@]43O)[C@@H]1CCC2=O	nt	nt	nt	-14.3%	0.8%	0.3%	nt	-19.8%
Cc1ccccc1C(=O)NC1CCN(CC(=O)NCc2ccccc2)CC1	nt	nt	4.4%[46.1 µM]	-15.7%	0.2%	-9.3%	?	-10.8%
COc1cccc(C(=O)NC2=NCCS2)c1	0.3%	-5.0%	-26.6%	7.1%	-26.6%	-14.0%	-29.7%	-22.1%

Remaining list, next part
molecule	Cruzain inh Det	Cruzain noTriton	LASV entry inh	RE007 growth inh	SARS PLpro yeast	NS1 function inh	Marburg entry inh	StopGo reporter
Cc1ccc(NC(=O)Cc2nnc(SCC(=O)c3ccc(Br)cc3)n2C)cc1	4.5%	-9.1%	-20.5%	15.0%	13.4%	-1.8%	?	-23.6%
NC1=NC(=O)C(Cc2cccc(Cl)c2Cl)S1 (stereo unspecified)	-4.0%	-4.8%	?	5.1%	-0.3%	9.9%	14.0%	8.2%
CC(=O)Nc1cc(C(=O)NCc2ccccc2Cl)ccc1Sc1ccc(F)cc1	-1.7%	-7.8%	29.4%[46.1 µM]	nt	nt	nt	nt	-3.9%
O=C(Nc1c(Cl)cccc1Cl)c1cc(-c2ccco2)on1	nt	nt	-13.9%[46.1 µM]	?	-2.8%	-9.6%	?	9.7%
Cn1cc(Br)c(C(=O)NC(=S)Nc2ccc(S(N)(=O)=O)cc2)n1	nt	nt	-18.7%	-10.9%	-2.5%	3.1%	-7.2%[46.1 µM]	-8.9%
O=S(=O)(Cc1ccccc1)N(O)c1ccccc1	nt	nt	16.3%	3.6%	-5.3%	?	29.2%	19.3%
CC1CN(C(=O)Nc2ccc(C(=O)NCCc3ccc(Cl)cc3)cc2)c2ccccc2S1 (stereo unspecified)	-1.5%	0.9%	?	nt	nt	nt	11.9%[46.1 µM]	-8.1%
CCOC(=O)c1ccc(CNC(=O)c2n[nH]c(=O)c3ccccc23)o1	-0.7%	5.2%	-4.0%	14.6%	13.6%	2.4%	-1.3%	nt
Cc1ccc(S(=O)(=O)Cc2ccc(C(=O)N3CCCC3)o2)cc1	6.8%	8.1%	nt	7.1%	3.5%	8.2%	nt	-3.1%
O=C(CO/N=C/c1ccccc1O)NNC(=O)c1ccccc1Cl	-1.3%	0.9%	-4.3%	-13.1%	-7.6%	4.3%	17.2%[46.1 µM]	-12.9%

(next part)
molecule	Cruzain inh Det	Cruzain noTriton	LASV entry inh	RE007 growth inh	SARS PLpro yeast	NS1 function inh	Marburg entry inh	StopGo reporter
COc1ccc2c(c1)/C(=C/c1cc(OC)c(OC)c(OC)c1)C(=O)N2	nt	nt	?	14.3%	nt	nt	?	?
Cc1noc(C)c1NC(=O)N1CCN(Cc2ccccc2)CC1	nt	nt	2.1%	0.5%	1.0%	1.8%	14.8%	-4.6%
COC(=O)CCN(C1CCCCC1)S(=O)(=O)c1ccc(S(=O)(=O)N2CCCCC2)cc1	-0.2%	?	6.8%	3.9%	-1.9%	4.2%	0.7%	nt
COc1cccc(CC(C(=O)Nc2cc(C)ccc2C)c2nn[nH]n2)c1OC (stereo unspecified)	2.8%	-14.0%	16.8%	-11.4%	-0.5%	9.1%	11.9%	10.1%
O=C1c2ccccc2C(=O)N1CCCCn1c(=O)oc2ccccc21	-4.1%	-7.1%	5.1%	-6.6%	9.9%	-11.3%	13.6%	-16.3%
CN(Cc1nc(-c2cccs2)no1)CC(O)c1ccccc1 (stereo unspecified)	nt	nt	6.4%	-1.0%	0.7%	-6.7%	2.5%[46.1 µM]	20.6%
Cc1ccc(N(C(=O)c2nsc(Cl)c2Cl)C(C(=O)NC2CCCC2)c2ccc(O)cc2)cc1C (stereo unspecified)	-2.2%	4.5%	1.58µM*	6.1%	12.7%	?	?	-15.4%
CCN(c1cc(C)cc(C)c1)S(=O)(=O)c1nnc(NC(=O)c2cccc(F)c2)s1	-5.5%	-7.2%	?	nt	nt	nt	nt	-6.4%
CCn1c(SCCOc2ccc(OC)cc2)nnc1C(CO)NC(=O)c1ccc(OC)cc1 (stereo unspecified)	5.8%	?	-5.6%	-9.1%	5.9%	-13.9%	?	-32.9%
O=c1ccc2c(-c3ccccc3)c3ccc(O)cc3oc-2c1	nt	nt	-17.9%	5.8%	1.4%	-1.0%	2.4%[46.1 µM]	-19.9%

Later entries:
molecule	Cruzain inh Det	Cruzain noTriton	LASV entry inh	RE007 growth inh	SARS PLpro yeast	NS1 function inh	Marburg entry inh	StopGo reporter
O=S(=O)(c1ccc(Cl)cc1)N1CCC(N2CCOCC2)CC1	-2.5%	8.1%	?	3.6%	11.5%	3.5%	20.2%	-23.0%
Cc1nc2ccccc2n2c(O)c(CC(=O)O)cc12	0.2%	8.7%	10.8%	-0.6%	1.3%	19.6%	0.1%	nt
CC(NC(=O)c1ccc(NC(=O)CC2SC(N3CCCC3)=NC2=O)cc1)c1ccc(S(N)(=O)=O)cc1 (stereo unspecified)	nt	nt	-3.7%	-9.6%	2.8%	nt	22.3%	-13.9%
O=C(NCC(c1ccc2c(c1)OCO2)N1CCOCC1)C(=O)Nc1ccc(F)cc1F (stereo unspecified)	-0.4%	2.1%	3.3%[46.1 µM]	nt	nt	nt	nt	-6.0%
O=C(Nc1ccc(Cl)cc1)c1ccc(CN2CCc3ccccc3C2)cc1	nt	nt	nt	-15.4%	-4.9%	-7.0%	nt	-3.8%
O=C1NC(c2cccc3ccccc23)Nc2ccc(Cl)cc21 (stereo unspecified)	nt	nt	?	-10.5%	nt	nt	?	0.0%
CC1=C(C(=O)OC(C)C)[C@]2(C(=O)N(CC(N)=O)c3ccccc32)C(C#N)=C(N)O1	0.8%	5.6%	4.0%	1.4%	-19.6%	-4.6%	10.3%	-19.9%
Cn1cc(SCC(=O)N2CCN(c3ccccc3)CC2)c2ccccc21	-3.7%	1.7%	nt	-10.2%	-8.9%	-82.4%	nt	-19.5%
COc1ccc(-n2nc([N+](=O)[O-])c(=NCCc3ccc(C)cc3)n2O)cc1	nt	nt	-11.4%[46.1 µM]	-2.8%	-5.0%	nt	28.9%[46.1 µM]	-18.7%
O=C(/C=C\c1cn(-c2ccccc2)nc1-c1cccs1)N1CCOCC1	-10.4%	?	?	-14.7%	21.8%	3.5%	?	1.9%
